# PrP 5UTR inh: inhibition of PrP 5' UTR reporter expression; cell-based PrP 5' UTR mRNA reporter, plate reader; inhibition, % (concentration not given with the values); 0.35% of 340,000 active; AID 488862;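 active = every replicate at 50% or more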;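 also: 0 = median of the neutral control wells; tested in H4 reporter cells; numbers are from one replicate; inactives centre near -14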
# Sa ugtP lethal: compounds lethal to S. aureus RN4220 ugtP deletion mutant; growth inhibition, % (concentration not given with the values); 0.54% of 330,000 active; AID 1259309; OD600 growth, 16 h; some inactives read as strong as hits;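 active = z-score under -3 and OD600 up to 0.15 on both plates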;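 also: plate controls were untreated wells for no effect and antibiotic for full effect; wells of about 80 µL received 100 nL stock; the first replicate is given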
# Sa RN4220 lethal: kills Staphylococcus aureus RN4220; AID 1259311; S. aureus RN4220 growth, OD600, 16 h; inhibition, % (no concentration beside the values); 0.33% of 330,000 active;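 active = z-score of -3 or lower and OD600 up to 0.18 on both plates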;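 also: plate controls were untreated cells for no effect and reference antibiotic for full effect; stock transfer was 100 nL into about 80 µL; one replicate is shown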
# BJeLR viability: BJeLR cell viability loss. BJeLR (HRASV12) viability, CellTiter-Glo ATP luminescence, 48 h; reference of the scale not given here. inhibition, % (no concentration beside the values). 0.17% of 300,000 active. AID 1554;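 active = replicate mean above 50%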;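 also: 50 nL library stock added to about 25 µL; numbers are from one replicate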
# Mtb hypoxia inh: reduces hypoxia-regulated biosensor signal in M. tuberculosis. fluorescence inhibition, % (concentration not given with the values). 0.1% of 300,000 active. M. tuberculosis hypoxia-regulated fluorescent reporter, fluorescence;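 active = 35 to 45% if threefold the growth effect, above 45% if 1.5-fold the growth effect; inactive = the rest, general growth blockers included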;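 also: wells of about 50 µL received 100 nL stock; 0% = vehicle wells and 100% = reference inhibitor wells; whole bacteria with a GFP reporter of the hypoxia response; strong numbers were not always called active; many hits fall short of the cut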
# Autofluor counter: flagged as autofluorescent in microsphere protease counterscreen. compound autofluorescence counterscreen, microsphere flow cytometry; stronger effect = higher value. fluorescence intensity (no concentration beside the values). 3.1% of 360,000 active. AID 624483;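 active = at least 3 SD above the mean of all compounds, about 16000 in these data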;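 also: 100 nL of 1 mM stock went into each well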
# Mtb hypoxia inh growth: second read-out of Mtb hypoxia inh, no call of its own (marks repeat the call); growth inhibition, %; measured here: M. tuberculosis growth (absorbance);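 0% = vehicle and 100% = reference antibiotic; read after six days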
# An asterisk follows results filed as active; · = no result given.
SMILES,PrP 5UTR inh,Sa ugtP lethal,Sa RN4220 lethal,BJeLR viability,Mtb hypoxia inh,Mtb hypoxia inh growth,Autofluor counter
CCN(CC)C(=O)CSc1nnc(-c2c[nH]c3ccccc23)o1,-35,14,7.7,-6,1,-5,·
CCOC(=O)Cc1csc(SCC(=O)Nc2cccc(Cl)c2)n1,-14,1,4.0,3,·,·,3850
CCC(=O)N1CCN(c2ccc(Cl)cc2NC(=O)Cc2ccc(Cl)cc2)CC1,-25,-7,-2.7,15,7,3,11386
Cc1ccc(-c2ccc(C(=O)O)c(C)n2)cc1,-17,-4,4.3,-5,7,1,8466
Cn1nnnc1SCCNC(=O)C1CCC(=O)N(Cc2ccc(Cl)cc2)C1 (configuration not stated),9,1,3.8,7,-5,-7,4283
COc1ccc2c(c1)cc1c(=O)n(CC(=O)NCCCN3CCOCC3)nc(C)n12,-25,-1,2.4,9,-5,3,5829
COc1cccc(OCCCN2CCCCCC2)c1,-26,4,0.7,-3,-6,16,2603
CCCn1nnc(NC(=O)COc2cc(C)ccc2C(C)C)n1,-5,5,2.0,-5,12,-4,9693
O=C(NC1=NCCS1)c1ccccc1F,·,0,3.0,-6,0,-8,4333
CC(C)(O)C1CC[C@@](C)(C2CC[C@]3(C)C2C(O)CC2[C@@]4(C)CCC(O)C(C)(C)C4C(OC4OC(CO)C(O)C(O)C4OC4OC(CO)C(O)C(O)C4O)C[C@]23C)O1 (some centres not stated),·,-3,-1.0,·,2,8,·
Cc1ccc(-n2c(CNCc3ccc(F)cc3)nc3ccccc3c2=O)cc1,0,2,0.8,2,-4,4,3934
COc1ccc(N(CC(=O)NCc2ccc(Cl)cc2)S(=O)(=O)c2ccccc2[N+](=O)[O-])c(OC)c1,-24,-8,-6.6,-3,1,8,4019
CCc1cc2c(SCC(=O)Nc3ncc(Cl)c(C)c3Cl)ncnc2s1,-9,-27,8.3,3,7,10,2122
CC(Sc1nc2ccccc2n1C)C(=O)NC(c1ccccc1)c1ccccc1 (configuration not stated),-24,6,4.8,6,11,10,8290
CCOC(=O)C1=C(N)Oc2c(oc(CO)cc2=O)C1c1ccc(F)c(F)c1 (configuration not stated),-30,-1,-1.9,11,4,13,3400
Cn1c2ccccc2c(=O)c2ccc(NCCc3cccs3)cc21,-43,29,15,·,38*,24*,3585
Cc1ccc(N2CC(C(=O)NCc3n[nH]c(=O)c4ccccc34)CC2=O)cc1C (configuration not stated),4,-2,0.6,6,-9,-4,5987
CC(C)(C)OC(=O)N1CSC[C@H]1C(=O)NC[C@H](CC(=O)O)c1ccc(Cl)cc1,-4,1,0.7,-9,-11,8,3560
CN(Cc1nc(-c2ccc(Cl)cc2)no1)C(=O)CCN1C(=O)[C@H]2CC=CC[C@H]2C1=O,-13,2,0.2,-1,8,3,6401
CCOC(=O)C1=C(COC(=O)CSc2ccc(C)cc2)NC(=O)NC1C (configuration not stated),-21,2,7.6,·,6,1,8023
CN(C)S(=O)(=O)c1cccc(NC(=O)c2cc([N+](=O)[O-])ccc2N2CCCCC2)c1,-9,0,2.8,·,12,9,8470
O=c1[nH]c(=O)n(C2OC(CO)C(O)C2O)cc1N1CCOCC1 (configuration not stated),-20,8,3.7,·,11,3,3081
CCCCCc1nc2c(c(=O)c3ccccc3n2C)c(=O)n1Cc1ccc(OC)cc1,-17,1,1.8,-7,-7,-4,3880
COc1cc(-c2nn3c(-c4ccccn4)nnc3s2)cc(OC)c1OC,·,-11,5.7,3,-2,5,·
O=C(NCC1CCCO1)c1onc(CSc2ccccc2F)c1C(=O)O (configuration not stated),-7,1,1.9,9,0,3,3968
C=CCN(Cc1nc(-c2cc(OC)c3c(c2)OCO3)oc1C)C1CCS(=O)(=O)C1 (configuration not stated),-19,5,2.2,-3,-6,5,2841
O=C(NCCOc1nc(N2CCCCC2)nc(N2CCOCC2)n1)Nc1ccccc1,-40,-2,2.8,9,14,8,12658
CNC(=S)N1CCc2cc(OC)c(OC)cc2C1COc1ccc(F)cc1 (configuration not stated),-24,2,5.3,-3,6,6,4266
COc1ccc(C=Cc2c(-c3ccc(OC)cc3)oc3ccccc23)cc1,·,10,-3.2,·,-6,-9,·
Cc1nnsc1C(=O)N1CCN(c2cc(C(F)(F)F)ccn2)CC1,-20,6,2.7,0,7,3,3824
COc1ccc(OC)c(C(=O)N2CCC(n3nccc3NC(=O)CC(C)C)CC2)c1,-26,·,·,-5,·,·,5551
CC(=O)c1cnn(-c2ccccc2)c1C,-7,5,5.1,5,6,6,3713
COCCNC(=O)C/C(C)=N/NC(=O)C(=O)NC1CCCCC1,-25,·,·,2,·,·,4162
CCOc1cc(/C=C/C(=O)O)ccc1OCCOc1ccc(F)cc1,-27,9,1.4,-12,14,6,3722
CCN(Cc1ccncc1)C(=O)c1ccco1,-22,2,3.5,1,9,-2,5761
COc1cccc(N2CCN(S(=O)(=O)c3ccc(-c4coc(C)n4)cc3)CC2)c1,-14,4,2.1,-15,-1,-6,5725

# A second format for two compounds above.
compound	PrP 5UTR inh	Sa ugtP lethal	Sa RN4220 lethal	BJeLR viability	Mtb hypoxia inh	Mtb hypoxia inh growth	Autofluor counter
O=C(NCCOc1nc(N2CCCCC2)nc(N2CCOCC2)n1)Nc1ccccc1	-40	-2	2.8	9	14	8	12658
CNC(=S)N1CCc2cc(OC)c(OC)cc2C1COc1ccc(F)cc1 (configuration not stated)	-24	2	5.3	-3	6	6	4266

# Carrying on.
SMILES,PrP 5UTR inh,Sa ugtP lethal,Sa RN4220 lethal,BJeLR viability,Mtb hypoxia inh,Mtb hypoxia inh growth,Autofluor counter
Cc1cc(C)nc(SCC(=O)Nc2ncc3c(n2)CC(C)(C)CC3=O)n1,-25,4,5.5,-2,3,9,20783*
Cn1c(=O)oc2cc(S(=O)(=O)NCc3ccncc3)ccc21,-15,0,-3.5,-2,10,-2,6822
Cc1cccc(N2C(=O)/C(=C/c3ccccn3)SC2=S)c1,·,6,3.2,-3,0,-3,·
COc1cc(C(=O)Nc2ccc([N+](=O)[O-])cn2)cc(OC)c1OC,-19,10,7.8,-1,14,14,10033
CCOc1ccc(C(=O)NCC2OCCc3ccccc32)cc1 (configuration not stated),-28,6,-1.5,-8,13,18,13623
CCCC(c1nnnn1CCOC)N(Cc1cc2cc(C)c(C)cc2[nH]c1=O)CC1CCCO1 (configuration not stated),-3,10,5.0,-2,2,5,16616*
CCCCCC1CN(Cc2ccccc2)C(=O)C1CC(=O)NCc1ccccc1 (configuration not stated),·,2,1.4,·,7,4,·
O=C(O)c1cc(C2CC2)nn1-c1ccccc1,-20,-2,3.0,-1,15,8,8737
COc1ccc(CC(=O)Nc2ccccc2C(=O)NCCc2ccccc2)cc1,-22,5,3.3,5,-3,1,3242
CCC1(C(=O)c2ccccc2)C(c2cccc([N+](=O)[O-])c2)C1(C(=O)OC)C(=O)OC (configuration not stated),-25,·,·,-7,·,·,2118
O=c1c2cc3c(cc2[nH]c(=S)n1C1CCN(Cc2ccccc2)CC1)OCO3,-35,6,3.3,0,0,5,3771
Cc1ccc(N=Nc2c(C)[nH]n(-c3ccccc3)c2=O)c(C)c1,-27,-12,-3.5,1,14,3,3827

# Arranged by molar mass (falling): some entries from above
SMILES,PrP 5UTR inh,Sa ugtP lethal,Sa RN4220 lethal,BJeLR viability,Mtb hypoxia inh,Mtb hypoxia inh growth,Autofluor counter
O=C(NCCOc1nc(N2CCCCC2)nc(N2CCOCC2)n1)Nc1ccccc1,-40,-2,2.8,9,14,8,12658
C=CCN(Cc1nc(-c2cc(OC)c3c(c2)OCO3)oc1C)C1CCS(=O)(=O)C1 (configuration not stated),-19,5,2.2,-3,-6,5,2841
CCCCCc1nc2c(c(=O)c3ccccc3n2C)c(=O)n1Cc1ccc(OC)cc1,-17,1,1.8,-7,-7,-4,3880
COc1cccc(N2CCN(S(=O)(=O)c3ccc(-c4coc(C)n4)cc3)CC2)c1,-14,4,2.1,-15,-1,-6,5725
Cn1nnnc1SCCNC(=O)C1CCC(=O)N(Cc2ccc(Cl)cc2)C1 (configuration not stated),9,1,3.8,7,-5,-7,4283
CC(Sc1nc2ccccc2n1C)C(=O)NC(c1ccccc1)c1ccccc1 (configuration not stated),-24,6,4.8,6,11,10,8290
CCCCCC1CN(Cc2ccccc2)C(=O)C1CC(=O)NCc1ccccc1 (configuration not stated),·,2,1.4,·,7,4,·
COc1ccc(CC(=O)Nc2ccccc2C(=O)NCCc2ccccc2)cc1,-22,5,3.3,5,-3,1,3242
Cc1ccc(-n2c(CNCc3ccc(F)cc3)nc3ccccc3c2=O)cc1,0,2,0.8,2,-4,4,3934
CCOC(=O)Cc1csc(SCC(=O)Nc2cccc(Cl)c2)n1,-14,1,4.0,3,·,·,3850
COc1cc(-c2nn3c(-c4ccccn4)nnc3s2)cc(OC)c1OC,·,-11,5.7,3,-2,5,·
Cc1nnsc1C(=O)N1CCN(c2cc(C(F)(F)F)ccn2)CC1,-20,6,2.7,0,7,3,3824
CCOc1cc(/C=C/C(=O)O)ccc1OCCOc1ccc(F)cc1,-27,9,1.4,-12,14,6,3722
CCN(CC)C(=O)CSc1nnc(-c2c[nH]c3ccccc23)o1,-35,14,7.7,-6,1,-5,·
O=c1[nH]c(=O)n(C2OC(CO)C(O)C2O)cc1N1CCOCC1 (configuration not stated),-20,8,3.7,·,11,3,3081
COCCNC(=O)C/C(C)=N/NC(=O)C(=O)NC1CCCCC1,-25,·,·,2,·,·,4162
Cc1ccc(-c2ccc(C(=O)O)c(C)n2)cc1,-17,-4,4.3,-5,7,1,8466

# Next section
SMILES,PrP 5UTR inh,Sa ugtP lethal,Sa RN4220 lethal,BJeLR viability,Mtb hypoxia inh,Mtb hypoxia inh growth,Autofluor counter
CC(C)[C@@H](N)C(=O)N/N=C/c1ccc2nccnc2c1,3,·,·,-6,·,·,4084
O=C1C=C(O)c2cccc3cccc1c23,-9,·,·,-2,·,·,3026
CCCCOc1ccc(Nc2cc(Cl)ccc2C(=O)O)cn1,-4,·,·,-3,·,·,3745
C=CCNC(=O)N1CCC(n2nccc2NC(=O)CCCc2ccccc2)CC1,2,2,1.0,11,-1,-6,4334
Cc1cc(-c2ccccc2)nc(NN=Cc2ccc([N+](=O)[O-])cc2)n1,·,-26,8.5,·,3,8,·
Cc1ccc(N(CC2CO2)S(=O)(=O)c2ccc([N+](=O)[O-])cc2)cc1 (configuration not stated),-11,·,·,-12,·,·,4607
COc1cc(C(=O)N2CCN(c3ccccc3OC)CC2)c([N+](=O)[O-])cc1OC,-29,15,2.7,3,11,10,3487
CCOC(=O)CNC(=O)c1cn(CC(C)C)c(=O)c2cc(OC)c(OC)cc12,-17,2,-0.9,-12,5,5,6802
Cc1cc(C)n(-c2nc3c(c(=O)n(C)c(=O)n3C)n2CCO)n1,-15,2,5.9,-7,5,-8,3713
c1cncc(-c2nc3ccccc3o2)c1,-25,-5,5.6,-9,6,-1,2427
Cc1ccc(CNC(=O)c2cc(=O)c3cc(C)ccc3o2)cc1,-18,3,-2.3,-4,3,-2,4089
CSc1ncccc1C(=O)OCC(=O)Nc1ccc2c(c1)CCC2,-3,11,4.5,·,2,-5,6370
COc1ccc(C(=O)CCc2ccccc2)cc1,-36,6,7.3,-2,·,·,3627
COc1ccc(-n2c(CN3CCN(c4ccccn4)CC3)nc3ccc([N+](=O)[O-])cc3c2=O)c(OC)c1,·,4,0.7,2,6,0,4333
N#Cc1c(N)nc(SCC(=O)C23CC4CC(CC(C4)C2)C3)c(C#N)c1-c1ccc(Cl)cc1,-9,-6,2.4,2,·,·,2861
COc1ccc(C2CC(=O)C(C=NCCO)=C(O)C2)cc1OC (configuration not stated),-9,12,6.1,2,7,0,3572
c1ccc2c(c1)c1c3n2CCNC3CCC1 (configuration not stated),-3,0,0.2,-8,·,·,4990
C(=N\c1nccs1)/c1cccnc1,-19,·,·,-3,·,·,4729
COc1cccc(CCC(=O)N2CCC(n3nccc3NC(=O)C3CCOC3)CC2)c1 (configuration not stated),-3,2,2.3,-4,-15,-15,·
COc1ccc(C=NNC(=O)Cn2cnc3c2c(=O)n(C)c(=O)n3C)c(OC)c1OC,·,3,1.9,·,-5,-3,·
COc1ccc(NC(=S)N2CCN(c3ncccn3)CC2)cc1,-13,-1,3.0,7,1,11,2312

# Source: PubChem (several laboratories)
